Screens deposited in PubChem BioAssay by National Center for Advancing Translational Sciences (NCATS).
HSD17B inh = blocks hydroxysteroid 17-beta dehydrogenase activity; Q99714; recombinant HSD17B10, NADH fluorescence kinetic; many of its hits are not listed in these tables; Potency, µM (doses to about 57.1 µM), for inactives: at the highest dose activity change, negative = inhibition, most hits filed as inhibitors; actives 7.6% (n = 75,000); AID 893; active = well fitted inhibition curve with a large enough effect; inconclusive = small, poorly fitted or top-dose-only effect; inactive = no such curve, though single readings can be large or run the other way;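 note: the protocol describes HADH2 (HSD17B10) and not the HSD17B4 of the title; nearly all actives have a fitted effect of over 70% in size; most hits overshoot -100% by far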
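Enzyme plus compound, 15 min room temperature; substrate mix added (NAD+ 1 mM, beta-hydroxybutyryl-CoA 90 uM final); plates read kinetically for NADH fluorescence. HADH2 was His-tagged, E. coli-derived, 20 nM.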
Starred values were filed as active, the others as inactive; ? = inconclusive; [ ] = another dose, or the depositor's remark. % is set by controls: 0 for no effect and ±100 for the full control effect; potency is the fitted concentration of half-maximal effect. Not all compounds are listed; count on the stated rates, not on these rows.

Start of the listing, in advance, 3 compounds:
SMILES | HSD17B inh
O=C(CCN1C(=O)C2C3C=CC(C3)C2C1=O)Nc1c(F)cccc1F (stereo not drawn) | -2%
CS(=O)(=O)c1ccc2nc(NC(=O)C3CCCCC3)sc2c1 | -4%
Cc1oc(C)c(C(=O)O)c1COc1ccc(C(=O)O)cc1 | -1%

All compounds of this part (from the top)
SMILES | HSD17B inh
O=C(CCN1C(=O)C2C3C=CC(C3)C2C1=O)Nc1c(F)cccc1F (stereo not drawn) | -2%
CS(=O)(=O)c1ccc2nc(NC(=O)C3CCCCC3)sc2c1 | -4%
Cc1oc(C)c(C(=O)O)c1COc1ccc(C(=O)O)cc1 | -1%
O=c1[nH]c(CSc2nnc(-c3ccncc3)n2Cc2ccco2)nc2ccccc12 | 5%
O=C(O)[C@H]1CCc2ccc3ccccc3c2[C@H]1c1cccc2ccccc12 | 2%[11.4 µM]
CN1CCN(CCCNC(=O)C2CC(=O)N(C3CCCCC3)C2)CC1 (stereo not drawn) | 1%
COC(=O)n1c(SC)nc2ccccc21 | 2%
O=C(c1cc(-c2ccc(Cl)c(Cl)c2)on1)N1CCCCC1 | 2%
COCCn1c(N)c(NCc2ccccc2)c(=O)n(CC(=O)Nc2cc(C)ccc2C)c1=O | 10%
Cc1ccc(CN(C)C(=O)c2ccccc2Oc2ccccc2)o1 | -28%
COC(=O)C(C)n1cnc2c(cnn2-c2ccc(Cl)cc2)c1=O (stereo not drawn) | 0%
CCc1cc2c(nc1CC)CCN(CC/C(C)=N/O[C@@H]1O[C@H](COC(C)=O)[C@H](OC(C)=O)[C@H](OC(C)=O)[C@H]1OC(C)=O)C2 | -4%[11.4 µM]
O=C1c2ccc(-c3nc4ccccc4o3)cc2C(=O)N1Cc1cccnc1 | 15%
COc1ccccc1-n1c(SCC(N)=O)nnc1-c1ccccc1 | 6%
O=S1(=O)N=C(Nc2nc3c(s2)CCCC3)c2ccccc21 | 2%
COCCCN1C(=O)C(=O)/C(=C(/O)c2ccc(OC)cc2)C1c1ccc(O)c(OC)c1 (stereo not drawn) | -9%
COC(=O)C(C(=O)OC)C1O[C@@]23COCCC2(C)C3c2ccccc21 (stereo partly drawn) | -4%[11.4 µM]
CC(=O)NC12CC3CC(C1)CC(C(=O)Nc1nccs1)(C3)C2 | 3%
CCOC(=O)Cc1csc(NC(=O)CSc2nnc(C(C)C)n2C)n1 | 2%
CCc1ccccc1NC(=O)C(Cc1cccc(OC)c1OC)c1nn[nH]n1 (stereo not drawn) | 29%
C=CCn1c(SCC(=O)c2cc(C)n(Cc3cccs3)c2C)nnc1-c1ccncc1 | -6%
CCOC(=O)/C=C1\SCC(=O)N1CC(=O)NC1CCCCC1 | 0%
CC1CCN(c2ccc(C(=O)O)cc2N)CC1 | 25µM*
COc1cc(Nc2nc(SCC#N)nc3ccccc23)cc(OC)c1OC | -8%
CCCN1C(=O)C2(C(C(=O)c3ccc(C)o3)=C(O)C(=O)N2CCCN2CCOCC2)c2ccccc21 (stereo not drawn) | -15%
Cc1ccc(NS(=O)(=O)c2ccc(NC(=O)C3CCCO3)cc2)cc1 (stereo not drawn) | 9%
CCC(=O)c1ccc(OCC(O)CN2C(=O)NC(C)(C)C2=O)cc1 (stereo not drawn) | 6%
CCN(CC)c1ccc(C(=S)N2CCN(c3ccccc3)CC2)cc1 | -14%
Cc1ccc(N2CC(C(=O)NCc3ccc4c(c3)OCO4)CC2=O)cc1C (stereo not drawn) | -2%
Cc1ccc(NCc2nnc(SCC(=O)N(Cc3ccccc3)C(C)(C)C)o2)c(C)c1 | 4%
CC(=O)Nc1nnc(SCC(=O)NCC2CCCO2)s1 (stereo not drawn) | -5%
C/C(=C\c1ccc(C(=O)O)cc1)c1ccc2c(c1)C(C)(C)CCC2(C)C | 25µM*
CC(C)C(c1nnnn1C1CCCC1)N(C)C1CCCCC1 (stereo not drawn) | 2%
Cc1cccc(NC(=O)CC2CCC2)c1 | 1%
O=C(NCc1ccco1)c1cc(-c2ccco2)on1 | -10%
Cc1ccccc1OCCCCCNCCO | -3%
C/C=C1\C(=O)C[C@H]2[C@@H]3CCC4=CC(=O)CC[C@]4(C)[C@H]3CC[C@]12C | -15%
Cc1nnc(SCc2cn3ccsc3n2)n(N)c1=O | 7%
COc1cc(C2NC(=O)NC(O)(C(F)(F)F)C2C(=O)c2ccc(Cl)cc2)ccc1O (stereo not drawn) | -17%
O=C(CN(Cc1ccccc1Cl)C(=O)Cn1nnc(-c2cccs2)n1)NCC1CCCO1 (stereo not drawn) | 1%
Cc1cc(=O)oc2ccc(OCC(=O)N3CCC(C)CC3)cc12 | ?
CCOC(=O)CCN1C(=O)[C@H]2[C@H]3[C@H](O)[C@H](O)C/C(=N/OC[C@@H](O)COCc4ccco4)[C@H]3CC[C@@H]2C1=O | 6%[11.4 µM]
Cc1cccc(Nc2nc(N)nc(CN3CCC(C)CC3)n2)c1C | 1%
COc1ccc(NC(=O)N2CCCc3ccccc32)cc1 | 4%
COc1ccc(C(=O)N2CCC3(CCCN(Cc4ccccc4)C3)CC2)cc1 | -1%
CCNc1nc(NCC)n2c(SCc3nc4ccccc4c(=O)[nH]3)nnc2n1 | 1%
Clc1cccc(-c2nnc(SCc3nc4ccccc4[nH]3)n2Cc2ccco2)c1 | ?
Cc1c(C(=O)Nc2ccccc2Cl)oc2ccc(S(=O)(=O)N3CCC4(CC3)OCCO4)cc12 | 25µM*
COC(=O)C1(C(O)C(=O)c2ccc(C)cc2C)CCCCC1 (stereo not drawn) | -1%
Cc1cccc(-c2noc(CN(C(C)C)S(=O)(=O)c3ccc(F)cc3)n2)c1 | -5%
OCCSc1ncnc2c1oc1ccccc12 | 4%
O=C(Nc1ccc(Oc2ccc(S(=O)(=O)N3CCOCC3)cn2)cc1)c1ccco1 | 5%
CCOC(=O)c1cc(-c2ccc(C)cc2)n(CCC(=O)NCCN(C)C)c1C | -4%
COc1cccc(C2CC(=O)N3CN(c4ccccc4F)CSC3=C2C#N)c1 (stereo not drawn) | ?
CCOC(=O)c1[nH]c(CSc2nnnn2-c2ccccc2C)c(C(=O)OCC)c1C | 6%
COc1ccc(OC(=O)c2ccncc2)cc1 | 2%
COC(=O)c1ccc(C2C(C(=O)OCC(C)C)=C(C)N=C3SCCC(=O)N32)cc1 (stereo not drawn) | ?
CCOC(=O)c1sc(=S)n(Cc2ccccc2)c1N | -15%
Nc1nc(/C(=C/CC(=O)O)C(=O)NC2C(=O)N3C(C(=O)O)=CCSC23)cs1 (stereo not drawn) | -7%
Cc1oc(C(C)(C)C)cc1C(=O)Nc1ccc(C(=O)O)cc1 | 2%

Looked up one by one from the entries so far, five records:
SMILES | HSD17B inh
CCOC(=O)CCN1C(=O)[C@H]2[C@H]3[C@H](O)[C@H](O)C/C(=N/OC[C@@H](O)COCc4ccco4)[C@H]3CC[C@@H]2C1=O | 6%[11.4 µM]
CCOC(=O)c1cc(-c2ccc(C)cc2)n(CCC(=O)NCCN(C)C)c1C | -4%
COC(=O)c1ccc(C2C(C(=O)OCC(C)C)=C(C)N=C3SCCC(=O)N32)cc1 (stereo not drawn) | ?
Nc1nc(/C(=C/CC(=O)O)C(=O)NC2C(=O)N3C(C(=O)O)=CCSC23)cs1 (stereo not drawn) | -7%
Cc1c(C(=O)Nc2ccccc2Cl)oc2ccc(S(=O)(=O)N3CCC4(CC3)OCCO4)cc12 | 25µM*

(more compounds)
SMILES | HSD17B inh
CN1C(=O)C2(c3ccccc31)N(C)CC(c1ccccn1)C21SC(=S)N(Cc2ccco2)C1=O (stereo not drawn) | -5%
Cc1ccc(CCNC(=O)NC(C)(C)C)cc1 | 9%
O=C(CSc1nnc(-c2ccncc2)n1Cc1ccco1)OC1CCCCC1 | 4%
NC(=O)C1(N2CCCCC2)CCN(c2ccc3nnc(-c4ccccc4)n3n2)CC1 | ?
CCc1ccc(CN2C(=O)CCC2(C)C(=O)NC2CCCC2)cc1 (stereo not drawn) | 15%
CCCCOC(=O)c1ccc(Nc2ncnc3nc[nH]c23)cc1 | -4%
CCOC(=O)c1c(NC(=O)CSc2nnc(CNc3ccc(F)cc3)o2)sc(C(C)=O)c1C | -28%
CCOC(=O)N1CCN(c2c(NCCN3CCN(Cc4ccccc4)CC3)c(=O)c2=O)CC1 | -2%
Clc1ccc(C2[C@H]3CN(Cc4cccnc4)[C@H](c4ccccc4)C34CC2(c2cccnc2)C4)cn1 (stereo partly drawn) | 3%
Clc1ccc(-c2nnc3sc(-c4ccc(Br)o4)nn23)c(Cl)c1 | 4%
CC(=O)N1CCN(S(=O)(=O)c2cccc(C(=O)Nc3nc4ccccc4[nH]3)c2)CC1 | 11%
CCc1nc2c(sc3nc4c(cc32)COC(C)(C)C4)c(=O)n1Cc1ccco1 | 32µM*
COc1ccc(CNc2ccc3c(c2)nc(C)n3C)cc1 | -14%
O=C(CN(Cc1cccs1)C(=O)CSc1nnc(COc2ccccc2)o1)NC1CCCC1 | -6%
Cc1onc(-c2ccccc2Cl)c1C(=O)N1CCN(C/C=C/c2ccccc2)CC1 | -1%
O=S(=O)(c1cccc(C(F)(F)F)c1)N1c2ccccc2-n2cccc2[C@H]1c1cccnc1 | ?
COc1cc(O)c(C(=O)/C=C\c2ccc3c(c2)OCO3)c(OC)c1 | -5%[11.4 µM]
COc1ccccc1NC(=O)C(C/C=C(\C)Cl)C(C)=O (stereo not drawn) | -5%
COc1ccc2c(c1)c1ncn(CCN3CCCC3)c(=O)c1n2C | 25µM*
CN(C)c1nccc(Nc2ccccc2)c1C#N | -3%
CC(C)CO/N=C1/C[C@@H](O)[C@@H](O)[C@@H]2[C@@H]3C(=O)N(Cc4ccccc4)C(=O)[C@H]3CC[C@@H]12 | 2%[11.4 µM]
Cn1nnnc1SCC(=O)Nc1ccccc1N1CCOCC1 | 10%
COCCNc1nc(C)nc2c1nc(-c1ccccc1)n2CCCN1CCCCC1C (stereo not drawn) | 25µM*
CC(=O)NC1=NC(=O)CS1 | 9%
c1ccc(-n2ncc3c(NCCN4CCCCC4)ncnc32)cc1 | 25µM*
COCc1cc(C)nc(N2CCc3ccccc32)c1C#N | ?
CCCn1c(=O)c2ccccc2n2c(Sc3nnnn3-c3ccccc3)nnc12 | ?
O=C1c2oc3ccccc3c(=O)c2C(c2cccnc2)N1CCCN1CCOCC1 (stereo not drawn) | 0%
COc1cc2[nH]c(=O)n(CCC(=O)N3CCc4ccccc4C3)c(=O)c2cc1OC | 32µM*
CS(=O)(=O)c1ccc([C@H](O)[C@H](CF)NC(=O)C(Cl)Cl)cc1 | 3%[25.6 µM]
COCCCNC(=O)C1CCN(S(=O)(=O)c2c(C)noc2/C=C\c2ccc(OC)cc2)CC1 | 8%
O=C(Nc1cccc(-c2nnc(-c3ccccc3)o2)c1)c1ccco1 | -29%
CC(=O)Nc1cc2c(cc1C(C)=O)OCCO2 | ?
O=C(CSc1nc2ccccc2o1)c1cc2ccccc2oc1=O | ?
Cc1ccc(OCc2nnc(SCC(=O)N3CCOCC3)n2C)cc1 | 0%
O=C(O)c1cc2nc3c(c(C(F)(F)F)n2n1)CCc1ccccc1-3 | -17%
Cc1ccc2c(COC(=O)C3=COCCO3)cc(=O)oc2c1 | 9%
Cc1ccc(-c2nn(CC(=O)NCc3ccco3)c(=O)c3ccccc23)cc1 | -10%
CC(C)NC[C@H](O)c1cc(O)cc(O)c1 | 4%[25.6 µM]
CCC1Sc2ccccc2N(CC(=O)NCc2ccc3c(c2)OCO3)C1=O (stereo not drawn) | -1%
CCCC(=O)Nc1nnc(-c2ccco2)s1 | -21%
Cc1cc(-c2cccs2)n[nH]1 | 2%
CCN1CCN(c2c(Cl)cccc2NC(=O)c2ccc3c(c2)OCCO3)CC1 | 5%
O=C(CSc1ccc(Cl)cc1)OCc1nnc(-c2ccccc2)o1 | -9%
CCOC(=O)N1CCN(C(=O)c2oc(=O)c3ccccc3c2-c2ccc(C)cc2)CC1 | 1%
N#CCCN(C(=O)CSc1ccc2c(c1)OCCO2)c1ccccc1 | -8%
CCN1CCN(C(=O)C2c3cc(OC)c(OC)cc3C(=O)N(C)C2c2ccc(SC)cc2)CC1 (stereo not drawn) | -5%
NCS(=O)(=O)O | 4%[11.4 µM]
COc1ccc(CCNC(=O)CN(c2ccc(C)cc2)S(=O)(=O)c2c(C)noc2C)cc1OC | 5%
CCNC(=O)C1CC(=O)N(c2ccc(Br)cc2)C1 (stereo not drawn) | -1%
CCCOc1ccc(S(=O)(=O)NCCCN2CCOCC2)c2ccccc12 | -6%
CN(c1ccccc1C(=O)Nc1ccccc1C(=O)NCc1ccco1)S(C)(=O)=O | -2%
CC1CC(C)CN(C(=O)C2CCCN(S(=O)(=O)c3cccc4nonc34)C2)C1 (stereo not drawn) | -7%
O=C(CSc1ncc(C(F)(F)F)cc1Cl)N1CCN(S(=O)(=O)c2ccccc2)CC1 | -1%
Cc1noc(C)c1S(=O)(=O)N(CC(=O)Nc1ccc2c(c1)OCO2)c1ccc(C(C)C)cc1 | -1%
CN(Cc1ccccc1)S(=O)(=O)c1ccc(C(=O)Nc2nnc(C3CC3)o2)cc1 | -2%
Cc1ccc(-c2nc3cccnc3s2)cc1NC(=O)c1ccco1 | -23%
O/N=C1\CC(O)Cc2nonc21 (stereo not drawn) | -1%
COc1ccc(S(=O)(=O)Nc2ccc3c(c2)OCO3)cc1Cl | -15%
CCCN1CCN(c2ncnc3c2nnn3Cc2ccccc2)CC1 | 2%
CC(C)(C)c1csc(NC(=O)Cn2c(=O)oc3ccccc32)n1 | -1%
COc1ccc(Oc2ncc3ncc(=O)n(C)c3n2)cc1 | -2%

Among those listed so far, 4 have a tert-butyl group.
SMILES | HSD17B inh
Cc1ccc(NCc2nnc(SCC(=O)N(Cc3ccccc3)C(C)(C)C)o2)c(C)c1 | 4%
Cc1oc(C(C)(C)C)cc1C(=O)Nc1ccc(C(=O)O)cc1 | 2%
Cc1ccc(CCNC(=O)NC(C)(C)C)cc1 | 9%
CC(C)(C)c1csc(NC(=O)Cn2c(=O)oc3ccccc32)n1 | -1%
